Screening results (PubChem BioAssay)
Ba CapD inh: CapD enzyme inhibition; purified CapD enzyme, fluorescence intensity read-out; stronger effect = lower value; some hits fall short of the stated cut; z-score (no concentration beside the values); AID 492967; 140,000 compounds, 0.23% hits;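 active = z-score under -4 in either of two replicates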;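 note: stock transfer was 100 nL into about 40 µL; score is relative to mean and spread of the plate; one replicate is shown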
AID504770: E. coli YBA685 growth inhibition, screen for V. cholerae RctB inhibitors; z-score (test concentration not listed); E. coli YBA685 rctB-dependent plasmid, OD600 growth, 3 h; stronger effect = lower value; 130,000 compounds, 0.27% hits;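 active = z-score under -2 on both plates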;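 note: wells of about 30 µL received 100 nL stock; score is relative to mean and SD of the test wells; the first replicate is given; strong numbers were not always called active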
* = called active by the depositor; i = inactive; / = no result given; & = joins results of further samples.

Every second line gives: Ba CapD inh	AID504770
CCOc1ccc(N2C(=O)c3ccccc3NC2c2ccc(Br)cc2)cc1 (stereo not given)
 : 0.065	/
COc1ccc(-n2cnnc2SCCC#N)cc1
 : /	0.65
Nn1c(Cc2ccccc2F)nnc1SCC(=O)c1ccc[nH]1
 : /	-0.55
O=C(Nc1cccnc1)C1CCCS1 (stereo not given)
 : -0.61	0.1
O=C(O)C(c1ccc(Cl)cc1)c1ccc(Cl)cc1
 : 0.36	/
Cc1ccccc1Nc1nc(N)nc(CSc2ccc(S(=O)(=O)N(C)C)cn2)n1
 : /	0.3
CCOC(=O)CCC(=O)O[C@H]1[C@H](O[C@@H]2[C@@H](C)[C@H](O[C@H]3C[C@@](C)(OC)[C@@H](O)[C@H](C)O3)[C@@H](C)C(=O)O[C@H](CC)[C@@](C)(O)[C@H](O)[C@@H](C)C(=O)[C@H](C)C[C@@]2(C)O)O[C@H](C)C[C@@H]1N(C)C
 : 0.28	0.25
S=c1sc2c(N3CCN(C/C=C/c4ccccc4)CC3)ncnc2n1-c1ccccc1
 : -0.35	-1.5
CCOC(=O)c1ccc(NS(=O)(=O)c2cc(-c3cc(C)no3)ccc2C)cc1
 : -1.4	1.9
Cc1cc(NC(=O)Nc2ccc(F)cc2)c(C(F)(F)F)o1
 : -1.2	-0.45
CC1(C)CC(=O)c2c(oc3ccc(NS(=O)(=O)c4ccc5ccccc5c4)cc23)C1
 : 3.8	-0.4
C=C(C)C(=O)Nc1ccc(Oc2ccccc2F)nc1
 : 0.21	-0.7
CCc1cc(C(O)(C(F)(F)F)C(F)(F)F)c(O)c(C(O)(C(F)(F)F)C(F)(F)F)c1
 : -0.44	0.5
Cc1ccc(N2C(=O)C(N3C(=O)c4ccccc4C3=O)C2c2ccc3c(c2)OCO3)cc1 (stereo not given)
 : 0.28	-0.3
Cc1csc2[n+]1CCN2CC(=O)c1ccc(Cl)cc1
 : 0.37	/

Every second line gives: Ba CapD inh	AID504770
C/C(=C/c1ccccc1)C(=O)N1CCN(Cc2ccccc2)CC1
 : 0.13	1.4
CCOC(=O)Cc1[nH]nc2c1C(c1ccc(Cl)cc1)C(C#N)=C(N)O2 (stereo not given)
 : 0.13	1.8
Cc1onc(-c2c(Cl)cccc2Cl)c1C#N
 : 0.35	/
CN(CCc1ccccn1)S(=O)(=O)c1ccc(F)cc1
 : -0.11	0
COC(=O)c1cc2ccccc2c(-c2c(O)ccc3ccccc23)c1O
 : -0.73	-0.35
FC(F)(F)c1ccnc(Sc2n[nH]c(C(F)(F)F)n2)c1
 : -0.5	0.95
S=c1nc(-c2ccco2)n(Cc2ccccc2)c(=S)n1C(=NCc1ccccc1)c1ccco1
 : -2	0.9
N#CC1(N)CCCC1
 : /	-0.85
COc1cc(SC#N)ccc1O
 : 0.49	-2
NC(=O)c1ccccc1N
 : /	-0.1
CCOc1ccc(CC(=O)Nc2ccccc2)cc1OCC
 : 0.11	-1.8
CS(=O)c1nc(-c2ccc(Br)cc2)cc(-c2ccccc2)c1C#N (stereo not given)
 : 1.4	0.7
COc1ccc(S(=O)(=O)NCc2ccccn2)cc1
 : 0.15	0.05
CCCCc1ccc(NC(=O)CC#N)cc1
 : -1.2	1.6
CCOC(=O)c1cnc2c(C)cc(C)cc2c1Nc1ccc(C(=O)OC)cc1
 : -0.29	/

Every second line gives: Ba CapD inh	AID504770
O=C1/C(=C/c2cccnc2)SC(=Nc2ccccc2)N1C1CCCCC1
 : 0.02	/
Cc1[nH]n(-c2ccccc2)c(=O)c1C=Nc1ccc(S(=O)(=O)N=C(N)N)cc1
 : 0.3	-0.75
Cc1cc(C)nc(NNS(=O)(=O)c2ccc(Cl)cc2)n1
 : /	0
O=C(Nc1nncs1)c1cc(-c2cccc(Br)c2)nc2ccccc12
 : 0.89	/
CC(C(=O)O)N1CCCC1 (stereo not given)
 : /	-3.3
CCCOC(=O)CN1C(=O)c2ccc(Br)cc2C1=O
 : -0.035	-0.65
Cn1c(O)c(/C=N/c2sc3c(c2C#N)CCC3)c(=O)n(C)c1=O
 : /	2.7
CS(=O)(=O)c1ccc(-c2ccccc2)cc1
 : -0.95	/
Nc1ccc2nc(C(F)(F)F)[nH]c2c1
 : 4.9	-0.05&-0.65
O=c1c2c3c(sc2ncn1Cc1ccccc1)CCC3
 : /	1
O=C1NC(=S)N/C1=C/c1cc(Br)ccc1OCc1cccc2ccccc12
 : 2.6	/
O=c1c2c3c(sc2nc2n1CCCC2)CCCCC3
 : -0.38	/
O=C(CSc1nnc2c(n1)[nH]c1ccccc12)C1CC1
 : -0.54	/
COc1ccc(-c2cn3ccccc3n2)cc1F
 : 45	/
COCC(=O)Nc1nc2nc(-c3ccccc3)cc(=O)n2[nH]1
 : 0	0.35

Every second line gives: Ba CapD inh	AID504770
COc1ccc(C(=O)NCCn2cc(SCC(=O)Nc3ccccc3)c3ccccc32)cc1
 : 1.8	-2.5*
COCCCn1c(SCC(=O)N2CC(=O)Nc3ccccc32)nnc1-c1ccoc1C
 : /	-0.6
CS(=O)(=O)N(CC(=O)Nc1ccccc1)Cc1ccc(Cl)cc1
 : -0.33	0.1
COc1ccc(S(=O)(=O)N(C2CC2)C2CCN(C)CC2)cc1
 : -0.69	/
COc1ccc2[nH]cc(-c3csc(N)n3)c2c1
 : /	1.4
O=C(CC1=NS(=O)(=O)c2ccccc2N1)NCc1ccc(F)cc1
 : -0.23	0
CC(=O)Nc1nc2nc(C(F)(F)F)cc(=O)n2[nH]1
 : -0.11	-0.85
Cc1c(NC(=O)Nc2ccccc2)sc2nc(-c3ccc(Cl)cc3)nn12
 : 17	-0.05
CCOC(=O)c1ccccc1NC(=O)C12CC3CC(CC(C3)C1)C2
 : -0.64	-1.6
CN1/C(=C/C#N)Sc2ccccc21
 : /	-0.35
COc1ccccc1C(=O)O
 : 0.8	-0.5
CCCCCc1ccc(-c2ccc(C(=O)Nc3ccc(Cl)c4c3C(=O)c3ccccc3C4=O)cc2)cc1
 : 0.15	/
Cc1cc(-n2cnc(-c3cn[nH]c3C)n2)no1
 : 0.03	1.7
O=C(O)CCC(=O)N1CCC(N2C(=O)Cc3ccccc32)CC1
 : -0.79	/
Nc1ccccc1C(=O)NCCc1ccc(Cl)cc1
 : 90	/

Every second line gives: Ba CapD inh	AID504770
O=c1cc(-c2cccnc2)nc2cc(-c3ccco3)[nH]n12
 : 1.5	0.55
CCOc1ccc(/C(O)=C2/C(=O)C(=O)N(c3ccc(C)cc3)C2(O)C(=O)OC)cc1 (stereo not given)
 : -0.67	/
CC1CC2c3cccc(C(=O)O)c3C(=O)N2c2ccc(Cl)cc21 (stereo not given)
 : 1.1	0.2
Cc1ccc2c(COC(=O)c3ccc(N(C)C)cc3)cc(=O)oc2c1
 : /	-2.4
CC(C)c1ccc(N2C=Nc3ccc(C(C)C)cc3C2)cc1
 : 0.12	0.45
COc1ccc(-c2noc(CCC(=O)NC3CCCCC3)n2)cc1
 : 0.42	-0.2
C=CCNC(=O)c1cc(CCC)on1
 : -0.9	-1.1
Cc1cc(C)cc(-n2c(SCC(=O)NCc3ccc(F)cc3)nc3c(c2=O)SCC3)c1
 : 0.28	-0.35
CN1C(=O)/C(=C/c2cn(CC(=O)N3CCCC3)c3ccccc23)c2ccccc21
 : -0.57	-0.75
COCCn1ccc2c(OCC(=O)c3ccccc3)cccc2c1=O
 : /	0.05
CCCS(=O)(=O)c1cnc(C)nc1N
 : 0.33	/
CC(NC(=O)Cc1c(F)cccc1Cl)C1CCCO1 (stereo not given)
 : 0.095	-0.65
O=C1CCCN1CCCNc1ccc(Cl)nn1
 : /	0.45
O=C(c1cccc(N2C(=O)c3ccccc3C2=O)c1)N1CCOCC1
 : 0.34	-0.45
O=C(Nc1ccccc1C(F)(F)F)c1ccc(Cn2cnnn2)cc1
 : 0.13	1.1

SMILES | Ba CapD inh | AID504770
Clc1ccccc1C1CC(c2ccco2)=Nc2ccccc2S1 (stereo not given) | -0.035 | /
Cc1cc(C)c(C2=NON3N(C(=O)C(C)(C)C)c4ccccc4N23)c(C)c1 | 0.17 | /
O=C1CSC2=NC3=C(CCc4ccccc43)C(c3cccs3)N12 (stereo not given) | 0.8 | 0.8
CCC(CC)C(=O)N1c2ccc(C)cc2-c2c(ssc2=S)C1(C)C | 0.095 | /
Cc1cc(C)c2c(n1)sc1c(=O)n(C)cnc12 | 1.4 | 0.55
CCC(CC)C(=O)Nc1ccccc1Cl | 0.095 | -0.9
Cn1c(=O)c(Nc2ccccc2)c2c3c(cccc31)C(=O)c1ccccc1-2 | -0.55 | 0.05
Cc1ccc(SCc2cc(=O)n3nc(C)sc3n2)cc1 | 0.71 | 1.1
O=C(CSc1nnc2ccccn12)Nc1ccc(S(=O)(=O)N2CCCCC2)cc1 | / | -0.6
O=S(=O)(Cc1ccccc1)c1nc2ccccc2[nH]1 | 8 | -0.45
CN1CCc2c(n(CC(O)CN(CCO)CCO)c3ccccc23)C1=O (stereo not given) | 15 | -0.9
COc1ccccc1OCC#CCn1cnc2ccccc2c1=O | 0.24 | -0.7
CCOc1ccccc1NC(=O)CCSc1nc2n[nH]c(C)c2c(=N)n1-c1cccc(Cl)c1 | -0.32 | /
COc1ccc(-c2cc(C(F)(F)F)n3nc(C(=O)N4CCCCCC4)cc3n2)cc1OC | -0.99 | /
O=C(CSc1ncccn1)NC1CC1 | -0.15 | -1.6
CN1CCN(c2ccc([N+](=O)[O-])c(Sc3nc4ccccc4[nH]3)c2)CC1 | 0.32 | /
Cc1cc(OCc2ccc(Br)cc2)nc(-c2ccccc2O)n1 | -0.71 | -0.2
O=C(/C=C/c1ccco1)NCCCN1CCN(CCCNC(=O)/C=C/c2ccco2)CC1 | -0.12 | 0.05
COC(=O)C1=CN(Cc2ccc(Cl)cc2)C=C(C(=O)OC)C1c1cc(Br)c(OC)c(OC)c1 | 48 | /
COc1cccc(N/C(SCc2ccc(C)cc2C)=C(/C#N)C(=O)NCc2cccs2)c1 | -0.23 | /
CCOC(=O)C1C(=O)CC(C)(O)C(C(=O)OCC)C1c1ccc(C)cc1 (stereo not given) | i | -0.95
Cc1cccc(Cl)c1S(=O)(=O)NCCN1CCCC1 | 0.93 | /
O=C(Oc1ccccc1-c1ccccc1)c1cncc(Br)c1 | -0.23 | 0.05
O=C(Nc1cccc(-c2cn3ccccc3n2)c1)c1cccs1 | 2.3 | /
CCOC(=O)/C=c1\s/c(=C\c2cccs2)c(=O)n1CC(=O)N1CCCC1 | / | -0.3

Some of these compounds in order of molar mass, descending.
SMILES | Ba CapD inh | AID504770
COc1cccc(N/C(SCc2ccc(C)cc2C)=C(/C#N)C(=O)NCc2cccs2)c1 | -0.23 | /
CCOC(=O)C1C(=O)CC(C)(O)C(C(=O)OCC)C1c1ccc(C)cc1 (stereo not given) | i | -0.95
Cn1c(=O)c(Nc2ccccc2)c2c3c(cccc31)C(=O)c1ccccc1-2 | -0.55 | 0.05
O=C1CSC2=NC3=C(CCc4ccccc43)C(c3cccs3)N12 (stereo not given) | 0.8 | 0.8
COc1ccccc1OCC#CCn1cnc2ccccc2c1=O | 0.24 | -0.7

Next part.
SMILES | Ba CapD inh | AID504770
Cc1ccc(CC(=O)N2CCCc3ccccc32)cc1 | 0.27 | -0.5
CCN(CC)C(=O)c1ccc2c(c1)C1C3CCC(C3)C1C(c1ccccc1)N2 (stereo not given) | -1.6 | -0.9
O=C(CSc1nc2[nH]ncc2c(=O)n1-c1cccc(C(F)(F)F)c1)Nc1ccc2c(c1)OCCO2 | -0.36 | /
CCc1ccc(C2C(C#N)=C(C)NC3=C2C(=O)CC(C)(C)C3)cc1 (stereo not given) | 47 | 0.1
O=C(c1ccc(N2CCOCC2)nc1)N1CCCC1 | 2.7 | 0.75
O=c1c2c3c(sc2nc(Cc2ccccc2)n1Cc1cccc(Br)c1)CCCC3 | 0.095 | /
O=C(O)C1Cc2c([nH]c3ccccc23)C(c2ccc(O)cc2)N1 (stereo not given) | 23 | /
CCOC(=O)CSc1nc2ccccc2[nH]1 | -0.43&-0.21 | /
CCSc1sc(CC)cc1C1C(C(=O)Nc2cccc(C)n2)=C(C)NC2=C1C(=O)CC(c1ccccc1)C2 (stereo not given) | 7.1 | /
COc1ccc2nonc2c1 | 6.8 | /
CC(C)Cn1c2ccccc2c2ccccc21 | -1 | 2.2
COc1ccc(C(=O)COC(=O)CN2c3nc4ccccc4nc3C3C=CC=CC32)cc1 (stereo not given) | / | 1.5
COC(=O)c1sccc1NC(=O)CSc1cccc(Cl)c1Cl | -0.24 | /
COc1ccc(-c2cnc(=O)n(Cc3ccc(Cl)cc3Cl)c2)cc1 | -0.025 | /
CCOC(=O)Cc1csc(NC(=O)c2ccccc2)n1 | 0.02 | 0
CCC1=NN(C(=O)c2ccc(C)cc2)C(O)(c2ccc(Br)cc2)C1 (stereo not given) | -0.57 | /
O=C(Nc1ccccc1Cl)C1COc2ccccc2O1 (stereo not given) | -0.41 | /
O=S(=O)(NC1c2ccccc2CC1O)c1cccc(Br)c1 (stereo not given) | -0.55 | /
O=C(Cc1ccc(-n2cccc2)cc1)Nc1ccc(Cl)cc1 | -0.05 | 2.7
CCn1nc(C)c(Br)c1C(=O)Sc1ccc(OC)cc1 | -0.57 | 1.3
CCCCNC(=O)Cn1c(=O)sc2ccccc21 | 0.33 | -1.1
CC1(C)CC(=O)C2=C(C1)c1c(ccc3ccccc13)NC2c1ccc(-c2ccc3c(c2)COC3=O)o1 (stereo not given) | -0.075 | /
O=C(COn1nnc2ccc(Cl)cc21)NC(=O)NC1CCCCC1 | / | -0.75
Cc1cccc2c1NC(C)CC2C (stereo not given) | 0.21 | -0.6
CCc1ccc2oc(-c3ccc(OC)cc3)cc(=NCC(=O)O)c2c1 | -0.16 | -0.85
CC(C)(C)c1cc(OS(=O)(=O)c2ccc(Cl)cc2)c(C(C)(C)C)cc1OS(=O)(=O)c1ccc(Cl)cc1 | 0.085 | /
Cc1ccc(Cn2c(O)c(N=Nc3cccc(F)c3)c3ccccc32)cc1 | -0.86 | /
CC(C)(C)c1ccc(CO/N=C2\C(=O)N(c3ccccc3)c3ccccc32)cc1 | 0.32 | /
